Vif TR-FRET: inhibitors of Vif binding to APOBEC3G peptide, primary screen, biochemical, TR-FRET, GST-Vif 1-94, biotin-A3G peptide, dose response retest (AID 1117319); one-dose inhibition, %; IC50 in µM for titrated hits; TR-FRET GST-Vif / biotin-A3G peptide binding; higher % means a stronger effect; test concentration not given here; strong numbers were not always called active; Virion infectivity factor (Human immunodeficiency virus type 1 group M subtype B (isolate …; 260,000 compounds, 0.57% hits;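 active means above the screen mean plus three standard deviations and confirmed in dose response; inconclusive means results disagree or hit not tested in dose response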;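 further: Vif residues 1-94 fused to GST binding biotinylated APOBEC3G peptide 110-148; 0% = full assay without inhibitor and 100% = GST in place of GST-Vif; retest series ran down from 100 µM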
A1 inh: caspase 3/7 activation in MEF A1-2A-BIM cells, primary screen, A1 inhibitor project, cell-based, luminescence, HTS; Caspase-Glo 3/7 luminescence, 3 h; percent of clofoctol response, vehicle zero; caspase activation, % (concentration not given with the values); 330,000 compounds, 0.066% hits; AID 2462, 2010;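 active means over half of replicate activation scores above 10%, or exactly half above 10 with the replicate mean above 10; inconclusive means replicate mean below 10 yet half the replicates above 10; inactive means over half of replicates below 10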;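 further: wells of about 30 µL received 50 nL stock; many hits fall short of the cut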
LANA-H2A inh: blockers of LANA interaction with H2A/H2B – biochemical, FP readout, HTS, primary screen; cell-free LANA-H2A/H2B peptide, fluorescence polarization; Protein LANA1 (Human herpesvirus 8 type P (isolate GK18)), Q9QR71; 320,000 compounds, 0.6% hits; AID 2629, 2010; inhibition, % (test concentration not listed); in the data active means inhibition mostly above about 10%, no sharp cut-off; inactive means mostly below about 6.7%;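 further: stock transfer was 7.5 nL into about 10 µL; 0% = median of vehicle wells and 100% = median of positive control wells; one replicate is shown; the record names a cut of 25% in any replicate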
UCH37 DUB inh: inhibitors of human UCH37 deubiquitinase, primary screen, biochemical, Ub-AMC cleavage, fluorescence; Ubiquitin carboxyl-terminal hydrolase isozyme L5 (Homo sapiens), Q9Y5K5; purified proteasome/UCH37; inhibition, % (no concentration beside the values); 330,000 compounds, 0.33% hits; AID 588478, 2011;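 active means mean of two replicates above 20%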;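 further: 0% = compound-free wells with enzyme and 100% = wells lacking proteasome; stock transfer was 100 nL into about 20 µL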
Target sequence (Q9Y5K5 whole entry, looked up): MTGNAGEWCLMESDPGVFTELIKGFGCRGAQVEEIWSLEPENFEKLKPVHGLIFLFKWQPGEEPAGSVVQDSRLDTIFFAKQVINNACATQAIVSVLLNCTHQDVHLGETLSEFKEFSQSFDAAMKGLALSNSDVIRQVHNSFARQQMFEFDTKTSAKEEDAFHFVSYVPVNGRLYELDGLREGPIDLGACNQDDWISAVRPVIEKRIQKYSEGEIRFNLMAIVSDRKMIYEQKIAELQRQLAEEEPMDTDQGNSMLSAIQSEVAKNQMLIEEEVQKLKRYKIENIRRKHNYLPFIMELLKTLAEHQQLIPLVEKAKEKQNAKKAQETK
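Assay system: Proteasome-bound UCH37. Buffer or medium: pH 7.4 Tris-HCl (50 mM) with ovalbumin, ATP-MgCl2, DTT. Incubation: 30 min preincubation with enzyme, 25 min cleavage at room temperature. Measured by: fluorescence, ex 355 nm, em 460 nm. Read-out basis: percent inhibition. Control set: wells without proteasome as full block, compound-free enzyme plus substrate as uninhibited.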
Beta2AR agonist: beta2AR agonists driving receptor internalization, primary screen, cell-based, FAP fluorogen, flow cytometry. Beta-2 adrenergic receptor (Homo sapiens), P07550. Am2.2-beta2AR cells; reference of the scale not given here. response, % (concentration not given with the values). 340,000 compounds, 0.43% hits. AID 504454, 2011;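 active means response above a set limit, near 3 SD of response in nonfluorescent compounds, cut at about 42% in these data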;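 further: stock transfer was 100 nL into about 11 µL; a reference agonist was the positive control; negative values mostly stem from fluorescent compounds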
HNF4A DNA FP: change in binding of human HNF4A to DNA, primary screen, biochemical, fluorescence polarization, FITC-DNA; Hepatocyte nuclear factor 4-alpha (Homo sapiens), P41235; 1 h; activity change, % at 10 µM; 360,000 compounds, 0.3% hits; AID 1224865, 2016; in the data active means activity change above about 30%, passing the limit was not always enough;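 further: controls were the assay level and a saturating level of protein; the project sought stronger binding though the title names inhibitors; some compounds called inactive have numbers as strong as hits; positive values seem to mean higher polarization but the record does not say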
Target sequence (P41235 whole entry, looked up): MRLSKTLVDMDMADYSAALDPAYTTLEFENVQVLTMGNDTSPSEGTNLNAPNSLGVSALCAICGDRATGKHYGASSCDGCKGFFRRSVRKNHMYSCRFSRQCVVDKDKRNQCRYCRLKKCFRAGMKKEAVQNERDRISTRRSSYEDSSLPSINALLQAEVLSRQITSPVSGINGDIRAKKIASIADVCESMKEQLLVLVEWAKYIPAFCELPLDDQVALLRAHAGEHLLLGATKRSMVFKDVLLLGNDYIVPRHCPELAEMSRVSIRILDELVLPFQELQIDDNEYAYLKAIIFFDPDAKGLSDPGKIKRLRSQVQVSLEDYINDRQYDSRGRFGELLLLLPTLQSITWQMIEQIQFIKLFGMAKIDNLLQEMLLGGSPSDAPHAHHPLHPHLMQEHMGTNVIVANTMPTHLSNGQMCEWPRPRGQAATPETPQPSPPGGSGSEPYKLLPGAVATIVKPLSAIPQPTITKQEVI
Ecoli growth: E. coli growth inhibition, primary screen, OD600; 330,000 compounds, 0.21% hits; Escherichia coli growth, 23 h; hits give low values; OD600 absorbance (no concentration beside the values);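 active means OD600 absorbance below the run mean of sample wells minus 3.6 SD, in any replicate, cut at about 0.56 in these data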;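 further: stock transfer was 300 nL into about 60 µL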
* hit, by the source's call; i = inactive; ? = inconclusive; nt = no result given; & = joins results of further samples.

SMILES	Vif TR-FRET	A1 inh	LANA-H2A inh	UCH37 DUB inh	Beta2AR agonist	HNF4A DNA FP	Ecoli growth
COc1ccc(-c2csc(NC(=O)CN3C(=O)NC4(CCCC4)C3=O)n2)cc1OC	2%	0.5	2.5	0.1	2	-1.4	0.62
Cc1ccccc1C(=O)NNC(=S)NC(=O)c1ccc(Cl)cc1Cl	-2%	-0.8	4.1	2.6	4	4.0	0.63
Cc1cnc(CN(C)Cc2c(C(=O)N3CCc4ccccc4C3)nc3ccc(Cl)cn23)[nH]1	nt	1.1	-8.6	4.6	-6	-3.4	0.68
C[C@@H]1CN([C@H](C)CO)C(=O)Cc2cc(NC(=O)CCC(F)(F)F)ccc2O[C@@H]1CN(C)C(=O)Nc1ccccc1	nt	-0.8	-0.9	3.5	-6	1.0	nt
O=C(Nc1ccccc1)c1cccc(N2C(=O)C3C4C=CC(C5CC45)C3C2=O)c1 (stereo unspecified)	2%	0.9	-3.2	-1.2	1	2.8	0.63
Cc1ccc2nc(N(CCCN(C)C)C(=O)c3cc(-c4cccs4)nc4ccccc34)sc2c1	nt	-0.7	-0.7	-107	18	3.7	0.6
O=C(NNC(=O)c1ccccc1F)c1ccc2[nH]c(=O)c(=O)[nH]c2c1	nt	-0.1	-0.6	-3.7	-3	0.5	0.67
CCC1CCCCN1C(=O)c1cc2c(=O)n3cccc(C)c3nc2s1 (stereo unspecified)	nt	-1.2	5.0	-232	4	-1.9	0.7
COCCNC(=O)c1cn(C)c2ccccc2c1=O	1%	-1.0	-1.0	1.6	-7	-3.2	0.66
CC1CCC(NC(=O)c2ccc3c(c2)OCO3)CC1 (stereo unspecified)	nt	-3.5	0.3	1.8	4	-0.6	0.73
COc1cc(OC)cc(-n2nnnc2SCC(=O)NC2CCCC2)c1	-1%	0.0	1.2	1.0	-4	-2.6	0.72
COc1cc(OC)c(C2C(C#N)=C(C)NC(C)=C2C#N)c(C(=O)O)c1	nt	0.0	0.7	-59	4	-1.8	0.71
Cc1nc2sccn2c(=O)c1CCN1CCC(=C(c2ccccc2)c2ccc(F)cc2)CC1	?	-0.1	-0.9	5.2	nt	nt	nt
Cc1nn(CCCC(=O)Nc2cccnc2Cl)c(C)c1[N+](=O)[O-]	5%	-1.2	-2.2	1.8	-3	-1.4	0.69
COc1ccc(NC(=O)c2cc(-c3cccnc3)nc3ccc(C)cc23)cc1OC	-4%	nt	nt	-13	32	9.7	0.7
Cc1cccn2c(/C=N/OCc3cccc(F)c3)c(-c3ccc(Cl)cc3)nc12	-2%	-1.8	1.2	nt	3	-0.6	nt
COC(=O)CSc1nnc(-c2ccc(OC)c(OC)c2)o1	6%	0.4	-1.5	nt	1	4.9	nt
S=c1[nH]nc(-c2ccc(Cl)cc2)n1-c1ccc2c(c1)OCCO2	-13%	0.8	1.4	1.0	5	-0.5	0.7
O=C1C(Cl)=C(N2CCOCC2)C(=O)N1c1cccc(Cl)c1	?	-0.2	3.5	5.0	6	-3.3	0.6
Cc1coc2c1c(C)cc1oc(=O)c(CC(=O)N[C@@H](CC(C)C)C(=O)O)c(C)c12	7%	-0.4	5.7	-383	-5	3.0	0.65
CCOC(=O)c1ccc2nc(C)c(CC)c(Cl)c2c1	-3%	0.4	1.6	5.8	1	2.8	0.7
CC(=O)Nc1ccc(NC(=O)C(C)OC(=O)c2c(C)nn(-c3ccccc3)c2Cl)cc1 (stereo unspecified)	-2%	0.2	4.8	1.3	0	5.0	0.68
COc1ccc(C(=O)/C=C/Nc2ccc(S(N)(=O)=O)cc2)cc1OC	-10%	-0.6	-7.7	-22	-2	2.4	0.62
O=C(NC(=S)Nc1cc(S(=O)(=O)N2CCOCC2)ccc1O)c1ccco1	1%	-0.1	-2.9	6.3	0	2.1	0.71
CCN1C(=O)N[C@@H](c2ccco2)C(C(C)=O)=C1C	nt	-0.1	4.4	4.8	-1	-0.7	nt
COc1ccc(CC(=O)Oc2ccc(F)cc2)cc1	nt	1.3	-2.8	-1.1	-2	1.3	0.67
CCC(CC)C(=O)Nc1ccc(-c2cn3cccnc3n2)cc1	-1%	0.5	-1.2	i	3	-1.4	0.62
CCOC(=O)c1ccc(NC(=O)CNC(=O)c2ccccc2)cc1	-3%	0.9	-1.6	2.1	3	5.3	0.66
CC(C)n1c(-c2ccccc2F)n[nH]c1=S	-1%	-0.1	2.0	0.0	1	2.6	0.66
OCC(CO)(CO)NCC(O)CN1c2ccccc2Sc2ccccc21 (stereo unspecified)	0%	-0.3	-2.5	4.7	-3	3.9	0.65
Cc1ccc(-n2cc(CN3CCCN(C=O)CC3)c(-c3ccc(F)cc3)n2)cc1	?	1.1	8.2	1.0	-24	2.5	0.69
O=C1C2C3C=CC(C3)C2C(=O)N1c1cccc2ccccc12 (stereo unspecified)	-6%	-3.1	6.0	3.4	-5	1.6	0.69
CN1C(=O)/C(=C/c2ccc3c(c2)OCO3)N=C1c1ccccc1	-2%	0.5	2.3	-6.3	1	4.6	0.7
CCCn1c(SCC(=O)Nc2ccccc2Oc2ccccc2)n[nH]c1=O	0%	-0.5	-1.0	3.8	-13	-1.1	0.69
CN(C)/C=C(\C(=O)c1ccccc1)c1nnnn1-c1ccccc1	-3%	-0.5	3.3	5.0	0	2.9	0.7
CC1=C(C(=O)OC(C)(C)C)C(c2cccc3ccccc23)NC(=O)N1 (stereo unspecified)	-6%	-0.3	1.0	0.4	4	-0.8	0.69
COc1ccc(NC(=O)c2cc(-c3cccs3)on2)cc1	nt	-1.1	2.5	-19	1	4.0	0.66
O=C(NC1CCCCC1)N1CCC(c2nc3ccc(Cl)cc3[nH]2)CC1	-2%	0.9	-3.6	2.3	1	0.9	0.72
COc1ccc2nc(NC(=O)c3ccccc3F)sc2c1	-11%	-7.4	-5.6	-287	4	1.2	0.69
CCOC(=O)c1ccc(NC(=O)Cn2cccc2)cc1	-1%	0.1	-3.0	3.6	2	6.4	0.74
O=C(CCNC(=O)c1ccccc1Cl)N/N=C\c1ccc(O)cc1	25%	0.9	0.6	nt	3	3.0	nt
COc1cccc(OCCOCCNCCO)c1	0%	-0.1	3.2	nt	nt	nt	nt
CCCNS(=O)(=O)c1ccc(OCC(=O)Nc2ccc3c(c2)OCO3)cc1	13%	1.5	1.5	0.5	0	-1.4	0.67
O=C(COC(=O)c1cccc(S(=O)(=O)N2CCCCC2)c1)NC1CCCCC1	17%	-0.9	2.9	4.0	1	-1.1	0.71
COc1ccc(C2C(C#N)=C(/N=C/N3CCOCC3)OC3=C2C(=O)CC(C)(C)C3)cc1OC (stereo unspecified)	-2%&4%	0.5	2.8	nt	1	-2.2	nt
Cc1occc1-c1nnc(SCC(=O)NC2CCCCC2C)o1 (stereo unspecified)	3%	nt	nt	3.1	3	4.5	0.69
CCCc1cc(=O)oc2cc(OCc3cc(OC)c(OC)c(OC)c3)c(Cl)cc12	-2%	-0.5	1.0	-32	-8	1.3	0.75
CCCN1CCN(CCCNC(=O)c2cc3c(s2)-c2ccccc2OC3)CC1	nt	-1.0	-1.4	nt	6	2.7	nt
O=C(N/N=C\c1cccc(Cl)c1)c1n[nH]c2c1CCCC2	0%	-1.9	0.3	nt	3	-0.5	nt
COc1cc(C)ccc1OCc1cc(C(=O)N2CCCCCCC2)no1	nt	-0.1	1.5	4.9	-6	2.3	0.72
O=C(COC(=O)c1ccc(N2CCOCC2)c([N+](=O)[O-])c1)Nc1ccc2c(c1)OCO2	nt	1.3	0.8	1.6	-21	0.0	0.65
CCC1(C)Cc2ccccc2C(=S)N1 (stereo unspecified)	-2%	1.5	0.7	6.4	1	-0.3	0.69
CCOCCCNC(=O)c1ccc(OC)c(OC2CCN(C(C)C)CC2)c1	nt	0.2	1.8	0.5	8	4.4	0.64
CC(=O)c1ccc(S(=O)(=O)NCCC(=O)NC2CCN(Cc3ccccc3)CC2)cc1	4%	0.0	4.2	-0.6	-1	0.6	0.67
O=[N+]([O-])c1ccc(-c2csc(N3CCc4ccccc4C3)n2)cc1	4%	0.1	1.7	5.4	-1	1.0	0.72
CCS(=O)(=O)c1ccc2c(c1)N(S(C)(=O)=O)CC(C(=O)NCc1ccccc1OC)O2 (stereo unspecified)	-9%	-0.7	5.5	-3.2	-4	-5.0	0.76
c1ccc(-c2nnc(SCC3CCCCO3)nc2-c2ccccc2)cc1 (stereo unspecified)	-2%	0.6	3.9	4.5	-11	2.7	0.74
O=C(/C=C/c1ccccc1O)c1ccc(Cl)cc1	nt	0.5	5.1	6.7	12	0.1	0.63
c1coc(CSc2ncnc3c2oc2ccccc23)c1	-5%	-1.0	2.5	1.0	-5	0.0	0.64
O=C1c2cc(Cl)ccc2OC2(CCNCC2)C12CC(c1ccccc1)=NO2 (stereo unspecified)	1%	0.6	-1.5	2.2	7	4.8	0.56
New compounds follow:
SMILES	Vif TR-FRET	A1 inh	LANA-H2A inh	UCH37 DUB inh	Beta2AR agonist	HNF4A DNA FP	Ecoli growth
O=C(COC(=O)c1c(F)cccc1F)NCc1ccc2c(c1)OCO2	nt	-1.5	3.0	0.9	6	4.2	0.69
CC1CCC(NC(=O)c2ccc(COc3ccccc3)o2)CC1 (stereo unspecified)	13%	0.3	7.1	5.0	0	-3.0	0.69
Cc1cc2sc3ccccc3c(=O)c2c(C)c1O	2%	0.0	-1.4	4.2	12	-0.8	0.7
CC1CCC(NC(=O)c2ccc(CNc3c(NC4CCCCC4)c(=O)c3=O)cc2)CC1 (stereo unspecified)	20%	0.0	2.1	7.2	0	-0.9	0.77
Cc1cc(N/N=C/c2ccc(O)cc2O)nc(-c2ccccc2O)n1	17%	-1.2	nt	nt	22	0.7	nt
O=c1cc(-c2ccccc2)c2cc3c(cc2[nH]1)OCCO3	nt	0.2	3.0	-50	0	-6.7	0.68
O=S(=O)(c1ccc(SCc2ccccc2)nc1)N1CCCC1	-11%	-0.1	3.8	-1.0	-8	1.2	0.69
N#CC1=C(N)C(C#N)(C#N)[C@H](c2c(F)cccc2F)[C@H]2CC3(CC=C12)OCCO3	17%	0.1	2.3	-2.9	19	-25	0.66
COc1ccc(CNC(=S)N/N=C/c2ccc(OC)c(OC)c2)cc1	0%	-3.2	7.6	nt	-2	-1.8	nt
CCNS(=O)(=O)c1ccc(CCC(=O)N2CCN(C(=O)OCC)CC2)cc1	1%	0.5	4.3	-3.3	-6	4.5	0.7
Cc1c(NC(=O)c2ccc3c(c2)C(=O)N(Cc2ccco2)C3=O)cccc1C(=O)O	4%	-0.4	4.0	5.0	-19	-3.7	0.65

Given bar-delimited: 3 of the compounds above
SMILES | Vif TR-FRET | A1 inh | LANA-H2A inh | UCH37 DUB inh | Beta2AR agonist | HNF4A DNA FP | Ecoli growth
N#CC1=C(N)C(C#N)(C#N)[C@H](c2c(F)cccc2F)[C@H]2CC3(CC=C12)OCCO3 | 17% | 0.1 | 2.3 | -2.9 | 19 | -25 | 0.66
COc1ccc(CNC(=S)N/N=C/c2ccc(OC)c(OC)c2)cc1 | 0% | -3.2 | 7.6 | nt | -2 | -1.8 | nt
CCNS(=O)(=O)c1ccc(CCC(=O)N2CCN(C(=O)OCC)CC2)cc1 | 1% | 0.5 | 4.3 | -3.3 | -6 | 4.5 | 0.7
